Screening results as filed in PubChem BioAssay.
T cruzi repl: inhibitors of intracellular T. cruzi growth, primary screen, luminescence, NIH3T3 host cells. T. cruzi beta-gal in NIH3T3, 90 h. inhibition, % (no concentration beside the values). 300,000 compounds, 1.4% hits;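 active = mean inhibition across valid replicates above about 55%, limit read from the data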;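 note: signal also drops with host cell toxicity which is not excluded here; 0% = plate median of DMSO wells and 100% = zero luminescence signal; higher percent means less beta-gal luminescence so fewer parasites; stock transfer was 50 nL into about 50 µL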
rRNA inh HTS: reduced GFP signal of wild-type E. coli, primary screen, bacterial rRNA inhibitor project, GFP/RFP fluorescence, OD600, single point | 350,000 compounds, 1.6% hits | E. coli WT GFP vs humanized-ribosome RFP mutants, 24 h; hits give low values; DMSO median 0, no signal -100 | GFP signal change (wild-type ribosome), % (test concentration not listed) | AID 720706, 2013;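 active = significant combined selectivity score with lowered wild-type GFP, culture density cut under 30%, mutant RFP and density less affected; inactive = any of these conditions unmet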; note: one replicate is shown; some compounds called inactive have numbers as strong as hits
E coli growth: E. coli growth inhibition, primary screen, OD600; Escherichia coli growth, 23 h; hits give low values; 330,000 compounds, 0.21% hits; OD600 absorbance (concentration not given with the values);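 active = OD600 absorbance below the run mean of sample wells minus 3.6 SD, in any replicate, cut at about 0.56 in these data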;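 note: stock transfer was 300 nL into about 60 µL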
A1 inh: caspase 3/7 activation in MEF A1-2A-BIM cells, primary screen, A1 inhibitor project, cell-based, luminescence, HTS. Caspase-Glo 3/7 luminescence, 3 h; percent of clofoctol response, vehicle zero. caspase activation, % (test concentration not listed). 330,000 compounds, 0.066% hits;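 active = over half of replicate activation scores above 10%, or exactly half above 10 with the replicate mean above 10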;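 note: wells of about 30 µL received 50 nL stock; many hits fall short of the cut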
Beta cell apopt: inhibitors of cytokine-induced beta cell apoptosis, primary screen, luminescence; INS-1E cytokine-induced death, ATP luminescence, 48 h; percent of positive-control rescue, neutral wells zero; protection from apoptosis, % (no concentration beside the values); 300,000 compounds, 0.8% hits; AID 435005, 2010;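 active = all replicates at 75% or more, or half of them and the mean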;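 note: 0% = cytokine-treated negative control wells and 100% = positive control rescue; higher means more ATP so stronger rescue from cytokine killing; wells of about 40 µL received 100 nL stock; the first replicate is given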
MLL AF4-AF9 inh: inhibitors of AF4 peptide binding to AF9, primary screen, biochemical, AlphaScreen, biotin-AF4 peptide, FLAG-AF9, single point | AID 651704, 2012 | Protein AF-9 (Homo sapiens), P42568 | 350,000 compounds, 0.47% hits | inhibition, % at 10 µM;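 active = every replicate reaching a set inhibition limit, whatever the replicate mean, cut at about 25% in these data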;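 note: 0% = plate neutral control median and 100% = total signal loss; the record names both 10 and 1 µM as test concentration; the first replicate is given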
Target sequence (P42568 whole entry, looked up): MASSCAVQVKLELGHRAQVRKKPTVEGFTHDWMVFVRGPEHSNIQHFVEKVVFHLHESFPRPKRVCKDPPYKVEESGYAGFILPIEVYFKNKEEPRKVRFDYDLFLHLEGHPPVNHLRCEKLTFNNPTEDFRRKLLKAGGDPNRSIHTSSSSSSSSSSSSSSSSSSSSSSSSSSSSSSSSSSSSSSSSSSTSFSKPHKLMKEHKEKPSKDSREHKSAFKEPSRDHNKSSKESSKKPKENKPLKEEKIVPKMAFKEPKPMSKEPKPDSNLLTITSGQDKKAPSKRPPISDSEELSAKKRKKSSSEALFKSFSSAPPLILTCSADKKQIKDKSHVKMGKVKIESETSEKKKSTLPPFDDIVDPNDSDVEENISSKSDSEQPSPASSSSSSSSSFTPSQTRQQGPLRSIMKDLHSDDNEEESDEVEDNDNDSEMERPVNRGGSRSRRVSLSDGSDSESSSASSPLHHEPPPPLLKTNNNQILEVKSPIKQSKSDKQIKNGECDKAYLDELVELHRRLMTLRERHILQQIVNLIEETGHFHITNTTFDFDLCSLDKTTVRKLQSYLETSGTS
FGF22 binding: binders of human FGF22 protein, primary screen, FGF22 synaptogenesis inhibitor project, biophysical, thermal shift, single point. Fibroblast growth factor 22 (Homo sapiens), Q9HCT0. 340,000 compounds, 1.5% hits. recombinant FGF22 thermal shift, SYPRO orange fluorescence; percent of sucrose octasulfate shift, DMSO zero. calls only at 9.99 µM;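 active = melting point raised past a set limit in the mean and every replicate; three in four hits are not shown here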
Target sequence (Q9HCT0 whole entry, looked up): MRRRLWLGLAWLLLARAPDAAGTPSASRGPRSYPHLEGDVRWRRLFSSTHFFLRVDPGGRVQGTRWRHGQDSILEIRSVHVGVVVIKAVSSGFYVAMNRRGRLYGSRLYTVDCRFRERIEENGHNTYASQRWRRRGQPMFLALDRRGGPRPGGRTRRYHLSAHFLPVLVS
UCH37 DUB inh: inhibitors of human UCH37 deubiquitinase, primary screen, biochemical, Ub-AMC cleavage, fluorescence | purified proteasome/UCH37 | Ubiquitin carboxyl-terminal hydrolase isozyme L5 (Homo sapiens), Q9Y5K5 | AID 588478, 2011 | 330,000 compounds, 0.33% hits | inhibition, % (concentration not given with the values);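 active = mean of two replicates above 20%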;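 note: 0% = compound-free wells with enzyme and 100% = wells lacking proteasome; stock transfer was 100 nL into about 20 µL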
Target sequence (Q9Y5K5 whole entry, looked up): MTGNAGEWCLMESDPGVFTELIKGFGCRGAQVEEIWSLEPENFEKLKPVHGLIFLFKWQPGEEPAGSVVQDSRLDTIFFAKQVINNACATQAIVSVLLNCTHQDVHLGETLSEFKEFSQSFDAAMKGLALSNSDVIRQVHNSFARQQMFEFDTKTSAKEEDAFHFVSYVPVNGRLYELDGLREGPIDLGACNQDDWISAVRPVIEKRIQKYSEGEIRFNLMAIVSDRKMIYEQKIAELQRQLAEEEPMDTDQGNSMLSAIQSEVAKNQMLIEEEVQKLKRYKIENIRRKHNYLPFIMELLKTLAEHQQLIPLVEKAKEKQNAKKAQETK
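Reagent: Ub-AMC substrate; assay system: Proteasome-associated human UCH37 deubiquitinase; controls: no-proteasome and no-compound wells; read-out: % inhibition of Ub-AMC cleavage fluorescence; timing: 30 min preincubation with enzyme, 25 min cleavage at room temperature; signal: AMC fluorescence from Ub-AMC cleavage, excitation 355 nm, emission 460 nm; buffer or medium: Tris-HCl pH 7.4 plus ovalbumin, ATP-MgCl2, DTT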
rRNA inh HTS OD600: recorded beside rRNA inh HTS, whose call it bears; OD600 change, %; measured here: OD600 growth;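 optical density of the mix in the first replicate; 0 = DMSO median and -100 = no signal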
rRNA inh HTS RFP: second read-out of rRNA inh HTS, no call of its own (marks repeat the call); RFP signal change, %; measured here: RFP humanized mutant strains;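 first replicate; 0 = DMSO median and -100 = no signal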
Starred values were filed as active, the others as inactive; i = inactive; . = not tested or not shown; & = joins results of further samples.

mol,T cruzi repl,rRNA inh HTS,rRNA inh HTS OD600,rRNA inh HTS RFP,E coli growth,A1 inh,Beta cell apopt,MLL AF4-AF9 inh,FGF22 binding,UCH37 DUB inh
COc1cccc(-c2nc(OC(C)C)c3ccccc3n2)c1,13,.,.,.,0.7,-1.0,2,.,.,1.3
CCCCCn1cnc2c(=S)nc(N)[nH]c21,-16,8,11,1.1,0.66,.,.,-1.2,i,10
Cc1nc2ccc(S(=O)(=O)c3ccc4nc(C)[nH]c4c3)cc2[nH]1,-8,.,.,.,0.77,-1.1,-4,.,.,5.7
C[C@H](CO)N1C[C@H](C)[C@@H](CN(C)S(=O)(=O)c2ccccc2)Oc2ccc(NC(=O)C3CCCCC3)cc2C1=O,.,-5&-8,0&-13,-0.5&0.0,.,-0.4,-2,-4.4,i,5.3
COc1ccc(Cl)c(NC(=O)C/C(C)=N/NC(=O)CCc2ccccc2)c1,-6,2,3,0.1,.,1.6,-3,-2.4,i,.
O=C(COC(=O)COc1ccccc1)Nc1cccc([N+](=O)[O-])c1,-2,13,0,6.0,0.72,0.4,-7,-0.3,i,1.4
O=[N+]([O-])c1cc(-c2ncccn2)c([N+](=O)[O-])s1,40,8,7,6.3,0.6,0.7,-5,0.5,i,8.2
O=C(CN1CCN(Cc2ccccc2)CC1)c1ccccc1,0,.,.,.,0.72,-0.8,3,.,.,-1.8
COc1ccc(OC)c(-c2nc(CN(C)C(C)c3ccncn3)c(C)o2)c1 (centres undefined),8,4,-3,0.1,0.68,-0.4,-3,1.3,.,-14
COC(=O)c1scc(C)c1N1C(=O)c2ccccc2C1=O,-24,9,12,0.4,0.68,0.2,-2,.,i,0.6
c1ccc(CCCN2CCN(c3ccccc3)CC2)cc1,12,-5,0,-2.1,0.61,-0.4,-2,6.0,i,3.1
CCO[C@H]1OC(C(=O)Nc2ccccc2)=C[C@@H](c2csc3ccccc23)[C@@H]1CCCO,2,-8,-18,-0.1,.,-1.4,4,0.2,i,-0.8
COC(=O)Cn1c(C(=O)N2CCCC2)cc2c1C[C@H]1CN(C(=O)c3ccccc3)[C@@](Cc3ccc(F)cc3)(C(=O)OC)[C@@H]21,.,2,6,-0.6,0.81,-1.1,0,3.1,i,-1.1
O=c1ccc2c([nH]1)CCCCCCCCCC2,6,-7,-12,-5.2,0.63,0.9,-2,2.1,i,1.0
CCN1CCN(CCOc2ccc(Br)cc2C)CC1,48,-6,1,-1.7,0.69,-0.5,-2,3.7,i,2.9
O=C(NCc1ccccn1)c1ccc(Cl)c(S(=O)(=O)N2CCCCC2)c1,22,-13,-13,-2.2,0.67,0.4,-1,-0.6,i,0.1
COc1cc(C(=O)O/N=C(\N)c2cccc([N+](=O)[O-])c2)cc(OC)c1OC,13,9,9,-1.8,0.7,-0.1,.,-2.0,i,6.9
Cc1sc(-c2ccccn2)nc1OC(=O)c1ccc(F)cc1F,-17,17,19,-2.1,0.68,1.2,-2,-6.8,i,4.2
CC(=O)NC(CC(=O)N(Cc1ccccc1)c1ccc(C)cc1)c1ccccc1 (centres undefined),-12,1,-11,-3.7,0.76,1.0,-3,-0.3,i,1.6
Cc1nc(NC(=O)CCc2ccccc2)ccc1Br,11,1,4,-3.2,0.69,0.7,0,.,.,1.8
O=C(NCc1cccs1)c1cc(S(=O)(=O)N2CCOCC2)c(Cl)cc1Cl,1,14,1,-1.0,0.68,-0.2,0,-1.6,i,1.3
Cc1ccc(C)c(NC(=O)CCCCCCCCCCC2COCCO2)c1 (centres undefined),15,10,2,0.1,0.69,0.3,-6,-5.0,i,1.0
CCOC(=O)CN/C=C(\C#N)c1ccccc1,-6,12,11,1.8,0.66,-0.4,-10,-0.3,i,2.5
COc1ccccc1C(=O)Nc1nc2ccccc2[nH]1,11,13,6,0.5,.,-9.1,93*,1.6,i,.
Cc1ccccc1NC(=O)C(C#N)Cc1cccnc1 (centres undefined),-7,.,.,.,0.65,0.2,-1,.,.,-1.2
O=C(Nc1ccc(Cl)cc1C(=O)Nc1ccc(Br)cn1)c1ccco1,33,.,.,.,0.74,0.7,28,.,.,-26
Cc1nn(C)c(Oc2ccccc2)c1CCNC(=O)C(C)(C)C,-7,7,10,2.6,0.67,2.3,1,-4.6,i,3.0
COc1cccc(N(CC(=O)NC2CCCCC2)C(=O)CCCC(=O)Nc2ccccn2)c1,19,0,-5,-1.6,0.66,1.0,-3,2.6,i,1.9
Cc1cc(C)n2cc(CSc3nnc(N)s3)nc2n1,0,.,.,.,0.7,-0.6,-2,.,.,-1.7
CCN1/C(=C\C=C2\C(=O)N(c3ccccc3)C(=S)N2C)Sc2ccccc21,43,12,5,30,.,.,.,0.1,i,.
COCc1nnc(NC(=O)c2cc3ccccc3o2)s1,-9,2,4,1.3,0.69,-0.5,-2,-2.1,i,10
COc1ccc(CCNC(=O)c2ccc(NC3=NC4CS(=O)(=O)CC4S3)cc2)cc1OC (centres undefined),-3,1,7,-4.2,0.69,1.2,-6,-4.5,i,2.6
Cc1nccn1CCCNC(=O)CC1C(=O)NCCN1Cc1ccc(Cl)c(F)c1 (centres undefined),-1,14,18,2.2,0.66,0.0,-2,4.1,i,-4.5
CC(=O)CCc1c(C)c2cccc(C)c2[nH]c1=O,-7,.,.,.,0.66,0.8,.,-2.5,.,-2.5
CCC(=O)Nc1ccc(C(=O)CSc2nnc(-c3ccccc3F)n2C2CC2)cc1,-6,.,.,.,0.7,0.2,6,2.8,i,4.9
O=C(NCc1ccco1)c1ccc(Br)c(S(=O)(=O)N2CCCCC2)c1,-5,-10,-7,1.7,0.63,1.3,-2,.,.,1.8
NC(=O)C1(N2CCCCC2)CCN(C(=S)NCCc2ccccc2)CC1,0,6,-8,-3.6,0.63,1.3,1,0.6,i,2.6
COc1ccccc1/C=C/C(=O)/C=C/c1ccccc1O,.,-1,1,5.0,0.65,.,.,0.3,i,6.9
CC(=O)Nc1ccc(S(=O)(=O)NC2C3(C)CCC(C3)C2(C)C)cc1 (centres undefined),-12,-6,4,-6.7,0.69,-0.1,.,-2.8,i,1.1
O=C(CSc1ccc2ccccc2c1)NC1CCCc2ccccc21 (centres undefined),12,8,7,1.4,0.73,0.3,2,0.2,i,4.6
CCC(=O)c1ccc(OCC(=O)OCC(=O)NCC2CCCO2)cc1 (centres undefined),-1,3,3,-0.2,0.71,-0.1,-2,0.6,i,-1.9
Cn1c(=O)c2c(SCc3cccnc3)nc(CC(C)(C)C)nc2n(C)c1=O,29,2,-16,-4.0,0.75,-0.6,-5,-2.2,i,8.1
CN(Cc1cnn(C)c1)C(=O)C1CCC(=O)N(Cc2cccc(F)c2)C1 (centres undefined),-11,8,6,1.0,0.68,-0.8,-1,-0.9,i,0.0
CC(=O)Nc1ccc(S(=O)(=O)Nc2ccccc2C(=O)N2CCCC2)cc1,-3,-2,6,-3.3,0.67,-0.7,2,-1.8,i,0.5
O=C(O)c1ccc(N(Cc2ccccc2)S(=O)(=O)c2ccccc2)cc1,-1&-3,-8,5,-0.9,0.64&0.7,-0.2&0.5,0&-14,1.7,i,4.0&2.2

Some of the entries so far, with each value named.
Molecule: O=C(CSc1ccc2ccccc2c1)NC1CCCc2ccccc21 (centres undefined)
  T cruzi repl = 12 | rRNA inh HTS = 8 | rRNA inh HTS OD600 = 7 | rRNA inh HTS RFP = 1.4 | E coli growth = 0.73 | A1 inh = 0.3 | Beta cell apopt = 2 | MLL AF4-AF9 inh = 0.2 | FGF22 binding = i | UCH37 DUB inh = 4.6
Molecule: COC(=O)Cn1c(C(=O)N2CCCC2)cc2c1C[C@H]1CN(C(=O)c3ccccc3)[C@@](Cc3ccc(F)cc3)(C(=O)OC)[C@@H]21
  T cruzi repl = . | rRNA inh HTS = 2 | rRNA inh HTS OD600 = 6 | rRNA inh HTS RFP = -0.6 | E coli growth = 0.81 | A1 inh = -1.1 | Beta cell apopt = 0 | MLL AF4-AF9 inh = 3.1 | FGF22 binding = i | UCH37 DUB inh = -1.1

The list continues.
mol,T cruzi repl,rRNA inh HTS,rRNA inh HTS OD600,rRNA inh HTS RFP,E coli growth,A1 inh,Beta cell apopt,MLL AF4-AF9 inh,FGF22 binding,UCH37 DUB inh
O=C(CN1C(=O)/C(=C\c2cccc(Cl)c2)Oc2ccccc21)N1CCN(c2ccccn2)CC1,8,.,.,.,0.71,0.4,0,.,.,i
O=S(=O)(NCCOCCNS(=O)(=O)c1ccccc1)c1ccccc1,5,.,.,.,0.69,-0.3,1,.,.,0.9
C=C(C)c1cccc(C(C)(C)NC(=O)N2CCN(C)CC2)c1,8,.,.,.,0.7,0.0,4,.,.,1.6
COc1ccc(NC(=O)[C@@H](NC(=O)c2ccccc2)C(C)C)cc1S(=O)(=O)N1CCCCC1,-3,.,.,.,0.71,-0.6,.,.,.,3.7
Cc1c(C(=O)NCCc2ccc(Cl)cc2)sc2nc3n(c(=O)c12)CCC3,12,-8,-12,-0.2,0.64,-0.9,0,2.7,i,3.9
Cc1cc(C)cc(NC(=O)CN(C)S(=O)(=O)c2cnc[nH]2)c1,-12,.,.,.,0.76,-0.4,-1,.,.,0.6
CCOC(=O)N1CC(=O)Nc2ccc(Br)cc2C1c1ccccc1 (centres undefined),-5,-2,-7,1.9,0.71,0.8,-3,-4.5,i,-0.4
O=[N+]([O-])c1ccccc1C=NNC(=S)NN=Cc1ccccc1[N+](=O)[O-],.,-20*,-2.9*,0.1*,0.68,.,.,2.5,i,3.6
COCCN(C(=O)COC(=O)c1nc(Cl)ccc1Cl)c1c(N)n(Cc2ccccc2)c(=O)[nH]c1=O,4,6,8,0.9,0.69,0.2,-4,9.9,i,0.2
Cc1[nH]nc(-c2ccc(OCc3cnn(-c4ccccc4)c3)cc2O)c1Oc1ccc(F)cc1,-5,.,.,.,0.78,0.2,5,.,.,3.3
CC(C)(C)C(=O)O/N=C1\CCS(=O)(=O)c2sccc21,-3,-4,2,0.3,.,-2.1,1,-1.3,i,.
CCOC(=O)C1C(c2cc(OC)c(OC)c(OC)c2)NC(=S)NC1(O)C(F)(F)F (centres undefined),-6,.,.,.,0.73,0.6,1,.,.,3.6
Cc1cc(C)cc(N(CCC(=O)Nc2nnc(C3CC3)s2)S(=O)(=O)c2ccc(Cl)cc2)c1,1,.,.,.,0.7,-0.1,-3,1.9,i,2.8

Only part of the results is shown, so the mix of outcomes need not match the whole.
